Screening results deposited in PubChem by Broad Institute.
Tg IFNy HTS – inhibitors of Toxoplasma gondii growth with IFN-gamma; 69,000 compounds, 3.8% hits; Toxoplasma gondii growth in IFN-gamma-treated host cells; hits give low values; reference of the scale not given here; activity change, negative = inhibition, %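 (about 20 µM by stock and volumes)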; AID 1259416;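 active = below -70%; inconclusive = fit judged invalid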;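 note: host cells are HeLa cells infected with Toxoplasma gondii; parasite growth read as luciferase light; one replicate is shown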
* marks the source's active call; other numbers are inactive results; i = inactive; u = inconclusive; & = joins results of further samples. Not all compounds are listed. The share of hits here may be higher or lower than overall.

SMILES	Tg IFNy HTS
NC(=O)c1ccnc(N2CCC(N3CCCC3=O)CC2)c1	7
C/C=C/c1ccc([C@@H]2[C@@H](CO)N(C(=O)CN(C)C)C23CN(C(=O)C2CCOCC2)C3)cc1	-24
CC(C)C(=O)c1cc(-c2cnc(N(C)C)nc2)cn1CC1CC1	-6
COc1cccc(NC(=O)c2ccc3nnc(C4CN(c5ncccn5)CCN4C)n3c2)c1 (stereo not given)	-49
CC(NC(=O)c1nc(N2CCOCC2)c2ccccc2n1)c1ccccc1 (stereo not given)	-44
CCS(=O)(=O)Nc1ccc2c(c1)C(=O)N(C)[C@@H]1CC[C@@H](CC(=O)NCc3ccccc3F)O[C@H]1CO2	12
CCOC(=O)c1nc(NCCCN2CCN(c3ccc(F)cc3)CC2)c2ccccc2n1	-26
CC(C)c1cn(CC[C@@H]2CC[C@@H](NS(=O)(=O)c3ccc(F)cc3)[C@H](CO)O2)nn1	-36
Cc1cc(C(=O)N2CCC3(CC2)COc2ccccc2S(=O)(=O)N(C)C3)no1	-60
CS(=O)(=O)Nc1ccc(C2=NN(S(C)(=O)=O)C(c3ccc4nccnc4c3)C2)cc1 (stereo not given)	10
Cc1nnnn1CCC(=O)N(CC#Cc1ccccc1)C1CCCC1	-10
O=C(OCC1OC2OC3(CCCCC3)OC2C2OC3(CCCCC3)OC12)c1ccccc1 (stereo not given)	29
O=c1oc2ccc3ccccc3c2cc1-c1nc2ccccc2[nH]1	132
COC(=O)c1cc2n(n1)CCCN(C(=O)CC1CCc3ccccc31)C2 (stereo not given)	-55
O=C(Cc1ccccn1)N1CC(=O)N2[C@H](C1)[C@H](c1ccc(C#CCC3CCCC3)cc1)[C@@H]2CO	-46

Other compounds.
SMILES	Tg IFNy HTS
COc1cccc(NC(=O)N2CCC3(CC2)Nc2cc(OC)ccc2-n2cccc23)c1	i
COc1ccc(OC)c(C(c2nnnn2Cc2ccccc2)N2CCc3ccccc3C2)c1 (stereo not given)	-29
CC(C)n1nnc2cc(C(=O)O)ccc21	13&9
CC(C)C(=O)OCC(=O)[C@@]12O[C@H](C3CCCCC3)O[C@@H]1C[C@H]1[C@@H]3CCC4=CC(=O)C=C[C@]4(C)[C@H]3[C@@H](O)C[C@@]12C	-65
COC(=O)c1cc2n(n1)CCN(S(=O)(=O)c1c(C)nn(C)c1Cl)C2	73
COc1cccc(C(=O)NCCc2csc(-c3cccc(C)c3)n2)c1	366
c1ccc(CN2CCC(NCc3ccc4nonc4c3)CC2)nc1	-4
COc1ccc(C(=O)Nc2ccc3c(c2)C(=O)N(C)[C@H]2CC[C@H](CC(=O)NCC4CC4)O[C@@H]2CO3)cc1	7
CN(C)C(=O)N1CCN(c2ccc3ccc(C(=O)NCC4CC4)cn23)CC1	-45
CC(C)C(=O)N1C[C@H]2CN(C(=O)N(C)C)C[C@@H]2c2ccccc21	-6
FC(F)(F)c1ccc(SC2c3ccccc3-c3ccccc32)nc1	-40
O=c1n(CC2CCCO2)nc(C2CCNCC2)n1Cc1ccccc1 (stereo not given)	6
COc1ccc(Cn2c(Cc3nc(C)cs3)n[nH]c2=O)cc1	2
c1ccc2c(c1)-c1ccccc1C2c1ccncc1	-26
CN1CC(=O)N(c2cccc(F)c2)CC12CCN(Cc1cccnc1)C2 (stereo not given)	-8

Remaining list, next part
SMILES	Tg IFNy HTS
CCC(=O)N1CC2(C1)[C@@H](c1ccc(-c3cccc(C)c3)cc1)[C@@H](CO)N2S(C)(=O)=O	-37
CC(C)NC(=O)N1[C@@H](CO)[C@@H](c2ccccc2)C12CN(C(=O)c1ccccn1)C2	66
Cc1cc(C(=O)N2[C@@H]3CC[C@H]2CNC(=O)C3)sc1-c1ccccc1	-52
OC[C@@H]1[C@H](c2ccc(C3=CCCC3)cc2)[C@H]2CN(Cc3ccncc3)CCCCN12	2
COc1ccc(-c2cc(=O)c3c(O)c(OC)c(O[C@H]4O[C@H](CO[C@@H]5O[C@@H](C)[C@H](O)[C@@H](O)[C@H]5O)[C@@H](O)[C@H](O)[C@H]4O)cc3o2)cc1	34
Cn1c(=O)oc2cc(NC(=O)CN3CCC(c4noc5cc(F)ccc45)CC3)ccc21	83
CC1N(C)C(=O)COC12CCN(Cc1nccs1)CC2 (stereo not given)	45
Cc1ccc(OCC(=O)N[C@@H]2C[C@H]3C(=O)N(C)CC(=O)N3C2)cc1C	2
CCCn1c(=O)c(-c2nc(-c3ccc(F)c(F)c3)no2)c(O)c2ccccc21	37
COC(=O)c1sccc1NS(=O)(=O)c1ccc(C(=O)OC)n1C	-29
N#C[C@@H]1[C@H](c2ccccc2)[C@H](CO)N1C(=O)Nc1cccc(F)c1	26
N#Cc1cccc(-c2ccc(C3[C@@H]4CN(C(=O)C5CCOCC5)C[C@H]3N4)cc2)c1 (stereo not given in full)	-10&-21
Cc1cccc(NC(=O)C(=O)NCCc2sc(-c3ccc(Cl)cc3)nc2C)c1C	274
COC(=O)c1ccc(NC(=O)Nc2ccc(-c3nc(-c4ccc(C)cc4C)co3)cc2)cc1	-16
Cc1cc(C)c2[nH]c(C(=O)N3CCOC(C(F)(F)F)C3)c(C)c2c1 (stereo not given)	-22

Going on with the list.
SMILES	Tg IFNy HTS
COCC(=O)N1CC(=O)N2[C@@H](CO)[C@@H](c3ccc(-c4ccccc4F)cc3)[C@@H]2C1	-9
Cc1cccc(S(=O)(=O)N2Cc3nc(CN(C)C)oc3C2)c1	0
O=C(Nc1ccc(F)cc1)N1C[C@H]2[C@@H](c3ccccc31)[C@H](CO)N2Cc1ccccc1Cl	9
CCn1ccc(C(=O)N2CCC3(CC2)Nc2cccnc2NC3=NCc2ccccc2)n1	130
O=C(C[C@H]1C=C[C@@H](NC(=O)Nc2ccc3c(c2)OCO3)[C@H](CO)O1)NCCCN1CCOCC1	36
COc1ccccc1-c1cn(CC[C@H]2CC[C@H](NC(=O)C3CCCCC3)[C@H](CO)O2)nn1	-27
CC(C)CCNC(=O)C1c2ccccc2Oc2ccccc21	-18
Cc1ncc(CN(C)Cc2ccc(-n3cccn3)cc2)n1C	2
CCc1ccc(NC(=O)N2CCC3(CC2)Nc2cc(F)ccc2-n2cccc23)cc1	i
Cc1nc(-c2ccccc2)nc2sc(C(=O)c3cc4ccccc4o3)c(N)c12	2
N#C[C@H]1[C@@H](c2ccccc2C2=CCCCC2)[C@H](CO)N1C(=O)c1ccccn1	-3
CCCNC(=O)N1[C@H](CO)[C@H](c2ccccc2-c2cccc(C)c2)[C@@H]1C#N	-48
CC(C)Cc1ccc(S(=O)(=O)N2CCC3(CC2)NCCN=C3NCc2ccc3c(c2)OCO3)cc1	-37
O=C(NCC1(c2ccccc2)CCOCC1)C1(c2ccccc2)CCOCC1	u
Cc1ccc(-c2noc(-c3c(O)c4ccccc4n(C)c3=O)n2)cc1	-36

Following part.
SMILES	Tg IFNy HTS
CC1CCN(C(=O)c2nc(-c3ccc(Cl)cc3)n3c2CCCCC3)CC1	22
COc1ccc(-c2nc(Cn3c(=O)c4c(C)cc(C)nc4n(-c4ccccc4)c3=O)c(C)o2)cc1OC	3
C[C@@H]1CCCCO[C@H](CN(C)S(=O)(=O)c2ccc(Cl)cc2)[C@@H](C)CN([C@@H](C)CO)C(=O)c2cc(NC(=O)Nc3ccc(C(F)(F)F)cc3)ccc2O1	-20
CCn1c(CC2CCNCC2)nn(Cc2csc(C)n2)c1=O	9
O=C[C@H](O)[C@@H](O)[C@H](O)CO	18
Cc1ccc(C(=O)N2CCCC(c3cc(N(C)C)nc(-c4ccncc4)n3)C2)c(=O)n1C (stereo not given)	-9
O=C(c1ccco1)N1CCN(S(=O)(=O)c2cc3c4c(c2)CCC(=O)N4CCC3)CC1	-29
CC(=O)NC12CC3CC(C1)CC(C(=O)N1CCCN(Cc4cccc(C)n4)CC1)(C3)C2	3
CCOCC(=O)NCCc1sc(-c2ccc(Cl)cc2)nc1C	55
C[C@]12CC[C@H](O)CC1=CC[C@@H]1[C@@H]2CC[C@]2(C)C(c3cccnc3)=CC[C@@H]12	-3&-8
Cc1cccc(NC2COC3(CCN(C(=O)c4ccsc4)C3)C2)c1 (stereo not given)	-52
COC(=O)[C@H]1[C@H](CO)[C@H]2Cn3c(ccc(-c4ccccc4OC)c3=O)[C@H]2N1C(=O)c1cnccn1	0
Cc1cc(C(=O)N2CCC3(CN(C)C(=O)O3)C2)cc2sc(N)nc12 (stereo not given)	82
COc1cc2c(cc1OC)[C@@H](C(C)C)N[C@@H](c1cccnc1OC)C2	124
C=CCN1Cc2cnn(C)c2C(COCC2CC2)C1 (stereo not given)	-11

Quoted at random: 4 entries already listed
SMILES	Tg IFNy HTS
OC[C@@H]1[C@H](c2ccc(C3=CCCC3)cc2)[C@H]2CN(Cc3ccncc3)CCCCN12	2
CC(C)C(=O)OCC(=O)[C@@]12O[C@H](C3CCCCC3)O[C@@H]1C[C@H]1[C@@H]3CCC4=CC(=O)C=C[C@]4(C)[C@H]3[C@@H](O)C[C@@]12C	-65
COC(=O)c1cc2n(n1)CCN(S(=O)(=O)c1c(C)nn(C)c1Cl)C2	73
CN1CC(=O)N(c2cccc(F)c2)CC12CCN(Cc1cccnc1)C2 (stereo not given)	-8

(list continues)
SMILES	Tg IFNy HTS
CC(C)C1CN(C(=O)Cc2ccccn2)CCC(=O)N1Cc1ccc(F)cc1 (stereo not given)	2
CN1CC(=O)N(c2cccc(F)c2)CC12CCN(S(=O)(=O)Cc1ccccc1)C2 (stereo not given)	8
COc1ccc(C(=C2C(=O)Nc3ccccc32)c2ccc(OC)cc2)cc1	17
Cc1ccc2nc(CNC(=O)CN3C(=O)CCc4cc(S(=O)(=O)N5CCCC5)ccc43)[nH]c2c1	7
CCc1nc(CC)n(Cc2nc(-c3ccccn3)no2)n1	3
Cc1nc2c(c(=O)[nH]1)CCN(Cc1cccn1Cc1ccccc1F)C2	15
N#C[C@H]1N[C@H](CO)[C@@H]1c1ccc(C#CC2CCCCC2)cc1	10
COCCN1CCCn2c(nc(Cn3cncn3)cc2=O)C1	2
Cc1nc(C)n(CC(C)C(=O)N2CCc3c(ncnc3N(C)C)C2)n1 (stereo not given)	3
CCN1CCC2(CC1)CC(NC(=O)c1csnn1)c1ccccc1O2 (stereo not given)	14
CCOc1cccc(C[C@@H]2CC[C@H](CN3CCOCC3)O2)c1	0
CC(=O)Cc1nnn(-c2cc(C)on2)n1	-62
OCC#Cc1ccc(CN2CCC3(CCNCC3)C2)cc1	16
COCC#Cc1ccc([C@H]2[C@@H](CO)N3C(=O)CN(C(=O)c4ccncc4)C[C@H]23)cc1	7
CN1C[C@H]2C3(CCN(CC4CCOCC4)CC3)CC[C@@]2(C(=O)N2CCCC2)C1	-36

More compounds follow:
SMILES	Tg IFNy HTS
CSc1ccc(C2c3[nH]c4ccccc4c3CCN2C(=O)Cc2cccs2)cc1 (stereo not given)	-69
CO[C@@H]1CN(C)C(=O)c2cc(NC(=O)CC(F)(F)F)ccc2OC[C@@H](C)N(CC2CC2)C[C@H]1C	-41
Cc1cccc(-c2ocnc2C(=O)Nc2nnc(-c3ccco3)s2)c1	33
Cc1ccc(C)c(-c2noc(-c3c(O)c4cc(F)ccc4n(C)c3=O)n2)c1	-13
O=C1CC[C@@H](NCC2=Cc3ccccc3OC2)[C@H](c2cc(F)cc(F)c2)N1	80
COC(=O)[C@H]1CN(C(=O)c2cccnc2)C[C@@H]1c1ccc(F)cc1	-11
O=C(NCCc1nc(-c2cccnc2)n[nH]1)c1nc2c(s1)CCCC2	-2
c1cnc2c(CNC(Cc3ccsc3)c3nccs3)cccc2c1 (stereo not given)	22
O=S(=O)(N1CCOCC1)N1CCCCC1CCc1ccccc1 (stereo not given)	0
O=C(O)C1(Cc2ccc(-c3cccnc3)cc2)CCNCC1	7
O=c1oc2ccccc2n1CCN1CCCC2(CCNC2)C1 (stereo not given)	-39
COc1ccccc1CNc1cc(C)ccn1	22
COc1ccc2c3c([nH]c2c1)[C@@H](CO)N(CC1CC1)CC31CN(C(=O)c2ccc(F)cc2)C1	-21
CSc1nc(N)nc(-c2ccccn2)n1	32
CCOc1ccc(S(=O)(=O)N2CCC(c3nc(C(=O)N(C)C)c(C)o3)CC2)cc1	72

Quoted from the listing.
For Tg IFNy HTS, c1cnc2c(CNC(Cc3ccsc3)c3nccs3)cccc2c1 (stereo not given) has the entry 22
For Tg IFNy HTS, CCOc1ccc(S(=O)(=O)N2CCC(c3nc(C(=O)N(C)C)c(C)o3)CC2)cc1 has the entry 72
For Tg IFNy HTS, COc1ccccc1CNc1cc(C)ccn1 has the entry 22
For Tg IFNy HTS, O=c1oc2ccccc2n1CCN1CCCC2(CCNC2)C1 (stereo not given) has the entry -39
For Tg IFNy HTS, Cc1ccc(C)c(-c2noc(-c3c(O)c4cc(F)ccc4n(C)c3=O)n2)c1 has the entry -13
For Tg IFNy HTS, O=S(=O)(N1CCOCC1)N1CCCCC1CCc1ccccc1 (stereo not given) has the entry 0

(list continues)
SMILES	Tg IFNy HTS
CCN1CCOCC2(CCCN(C(=O)c3nn(C)c4ccccc34)C2)C1 (stereo not given)	-32
CCn1c(C2CCN(C(=O)Cn3c(=O)oc4ccccc43)CC2)nn(C)c1=O	1
CCc1ccc(NC(=O)Cn2ncc3c(N4CCN(c5ccccn5)CC4)ncnc32)cc1	-41
CN(Cc1cccc2ncccc12)Cc1cccc2nonc12	-1
CCC1SC(=NC(=O)c2cccs2)NC1=O (stereo not given)	16
c1ccc(-c2ncn(CCc3csc(-c4ncccn4)n3)c2C2CC2)cc1	9
COc1ccccc1CCNC(=O)c1cc(S(N)(=O)=O)c(Cl)cc1Cl	1
COc1ccc(S(=O)(=O)N2CCC3(CC2)Nc2cc(OC)ccc2-n2cccc23)cc1	18
Cc1ccccc1C(=O)N1CCC(C(=O)NCCc2csc(-c3ccccc3)n2)CC1	-2
Cc1ccc(-n2ncc3c(NC4CCCCC4)ncnc32)c(C)c1	81
CC(C)N1C(=O)C2C3CC(=O)C(c4ccccc43)C2C1=O (stereo not given)	-3
C=CCNc1c(C(=O)OC)c(=O)[nH]c2c(Cl)cccc12	23
O=C(NCc1ccc2c(c1)CCCO2)C1CC(=O)N(Cc2ccccn2)C1 (stereo not given)	40
